ALR H2O2 inh: human ALR oxidase inhibition via reduced H2O2 | purified ALR, DTT oxidation, H2O2 HRP-luminol luminescence | inhibition, % (no concentration beside the values) | 290,000 tested, 3.8% active | AID 485317;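 active = mean and each replicate at 75% or more; inconclusive = only one of the two met; inactive = neither met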;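 also: stock transfer was 7.5 nL into about 7.5 µL; 0% = neutral wells and 100% = wells with inactivated enzyme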
Target sequence (P55789 whole entry, looked up): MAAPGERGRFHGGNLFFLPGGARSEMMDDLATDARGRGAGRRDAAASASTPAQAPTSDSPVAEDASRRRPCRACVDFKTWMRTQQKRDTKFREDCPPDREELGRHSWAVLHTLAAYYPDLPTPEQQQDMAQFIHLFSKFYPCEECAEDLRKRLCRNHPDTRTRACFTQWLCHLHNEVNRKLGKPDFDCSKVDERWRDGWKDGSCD
* marks the source's active call; other numbers are inactive results; ? = inconclusive.

ALR H2O2 inh	compound
-2	CC(=O)Nc1cccc(C2=CC(c3ccco3)n3ncnc3N2)c1 (stereo not drawn)
-13	C[C@H]1[C@H](C)CC[C@]2(C)CC[C@]3(C)C(=CC[C@@H]4[C@@]5(C)CC[C@@H](O)[C@](C)(C(=O)O)[C@@H]5CC[C@]43C)[C@H]12
-1	COC(=O)CC1C(=O)NC(C)=C1C(=O)OC (stereo not drawn)
1	O=C1CC(NCCC2=CCCCC2)C(=O)N1c1cccc(Cl)c1Cl (stereo not drawn)
-2	CCc1cc2c(nc1CC)CCN(CC/C(C)=N/O[C@@H](C)c1cc(-c3c(C)cc(C)cc3C)no1)C2
-14	COC/C=C/C1=CC2=CC(=O)C(C)(OC(=O)c3cnc4ccccc4n3)C(=O)C2=CN1C1CCCC1 (stereo not drawn)
9	CCOc1cc(/C=N/NC(N)=O)ccc1OC(=O)c1ccc(C)cc1
6	O=C1C2C3C=CC(CO)(O3)C2C(=O)N1c1ccc(-c2ccccc2)cc1 (stereo not drawn)
4	C[C@H](NC(=O)c1nc[nH]c1C(=O)NC1CCNCC1)C(=O)OCc1ccccc1
-8	C[C@@H]1C=CC(=O)O[C@@H]1c1ccc(C(F)(F)F)cc1
-2	Cc1[nH]c(=O)[nH]c(=O)c1/C=N\NC(=O)CCc1ccc(OC(C)C)cc1
-4	CC(C)c1cc(Nc2cccc(O)c2)cc(C(C)C)c1O
-10	CCOC(=O)CN(Cc1ccccc1)C(=O)OC(C)(C)C
-6	Cc1c2cnn(CC(=O)N3CCN(c4ncccn4)CC3)c(=O)c2c(C)n1Cc1ccc(F)cc1
97*	S=c1[nH]nc(-c2cccc(Cl)c2)n1/N=C/c1ccco1
-25	COc1ccc(OC)c(Nc2nc(-c3sc(NC(=O)c4ccccc4)nc3C)cs2)c1
-1	COC(=O)[C@@H]1CC[C@H](C)[C@@H](c2ccc(C)cc2)N1C(=O)c1ccc(/C=N/O[C@H](C)c2cn([C@@H]3COC[C@H]3O)nn2)cc1
97*	O=C(O)C1Nc2ccc(OC(F)(F)F)cc2C2C=CCC12 (stereo not drawn)
99*	O=C(OCC1O[C@@H](OC(=O)c2cc(O)c(O)c(O)c2)[C@@H](OC(=O)c2cc(O)c(O)c(O)c2)[C@@H](OC(=O)c2cc(O)c(O)c(O)c2)[C@@H]1OC(=O)c1cc(O)c(O)c(O)c1)c1cc(O)c(O)c(O)c1 (stereo partly drawn)
0	C/C(=N\Nc1ccc(C(=O)O)cc1)c1nc2ccccc2n1C
39	COc1cc2c(cc1O)[C@H](Cc1ccc(Oc3cc(C[C@@H]4NCCc5cc(OC)c(O)cc54)ccc3O)cc1)NCC2
2	CCN1CCN(c2nc(-c3ccncc3)nc3ccccc23)CC1
-2	O=S1(=O)c2ccccc2N=NN1Cc1ccc(Cl)c(Cl)c1
2	CC(=O)C1=NN(c2ccccc2)C(c2cccs2)N1c1ccccc1 (stereo not drawn)
7	CCOC(=O)C1(CCCCCCOc2ccc(Cl)cc2)CO1 (stereo not drawn)
23	N#C/C(=C/c1ccc(Br)o1)C(N)=S
-12	COc1ccc(N2CCN(C(=O)c3ccc4c(c3)NC(=O)C(CSCc3cccc(F)c3)N4)CC2)cc1 (stereo not drawn)
1	O=C(Nc1c(-c2cccs2)nc2ccccn12)c1ccc2ccccc2c1
23	C/C=C/C=C/[C@H]1Cc2cc(O)cc(O)c2O1
17	c1coc(C2Nc3cccc4cccc(c34)N2)c1
-3	COc1cc(/C=N/NC(=O)c2ccc3nc[nH]c3c2)cc(OC)c1OC
-1	O=[N+]([O-])c1cccc(-c2nc(Oc3ccc(Cl)cc3)c3ccccc3n2)c1
-13	C=CCN1C=C2C(=O)C(C)(OC(=O)c3ccco3)C(=O)C(C=C)=C2C=C1C1CC1 (stereo not drawn)
98*	COCc1cc(C)nc(N/N=C/c2ccc(-c3ccc(C(=O)O)c(Cl)c3)o2)c1C#N
-7	OC1CNCc2cc3c(cc21)OCCO3 (stereo not drawn)
-66	O=C(Nc1ccccc1Cl)Oc1ccc2ccccc2c1
-1	CN1C(=O)/C(=C/c2cn(CC(=O)N3CCCCC3)c3ccccc23)c2ccccc21
32	Cn1c(=O)n(C)c2cc(/C=N/NC(=O)c3ccncc3)ccc21
3	CCc1ccc(NC(=O)Cc2ccc(OC)cc2)cc1
2	COC(=O)CCCC[C@H]1SC[C@H]2NC(=O)N[C@]21O
91*	CN(C)CCCNS(=O)(=O)c1ccc(N2CCC(c3ccc(Cl)cc3)=N2)cc1
13	C/C(CCN1CCc2nc(-c3ccccc3)c(-c3ccccc3)cc2C1)=N\O[C@H](C)c1cn([C@H](CO)Cc2ccccc2)nn1
-4	CSc1nc(NCc2ccco2)c2c3c(sc2n1)CN(C)CC3
-6	CC1(OC(=O)c2cccs2)C(=O)C=C2C=C(c3ccc(C#N)cc3)OC=C2C1=O (stereo not drawn)
99*	Cc1nccn1CC(=O)N/N=C/c1ccc(O)c(O)c1
-8	Cc1ccc(/C=N/n2c(C)nc3ccccc3c2=O)s1
-2	O=C1Nc2cc(C(=O)N3CCN(c4ccccc4F)CC3)ccc2NC1CSCc1ccccc1F (stereo not drawn)
6	COCCNS(=O)(=O)c1ccc2c(c1)oc(=O)c1cc(S(=O)(=O)NCCOC)ccc12
-5	CC(C)(C)OC(=O)N1CCC2(CC1)Oc1ccc(F)cc1C(=O)C21CC(c2ccc(Cl)cc2)=NO1 (stereo not drawn)
3	O=C(c1ccc(Cl)cc1[N+](=O)[O-])N(Cc1ccccc1)Cc1ccccc1

(continued)
ALR H2O2 inh	compound
30	On1c2c(c3c4nonc4ccc31)CCCC2
0	COCCOC(=O)C1=C(C)NC(=O)NC1c1c(Cl)nc2c(C)cccn2c1=O (stereo not drawn)
-3	Brc1ccccc1OCCCCCN1CCCC1
-5	CCCOc1ccc(-c2nc(-c3ccc(N)cc3)cs2)cc1
-2	Cc1ccc(SC[C@H](Cc2ccccc2)N2CC[C@@H](NC(=O)OCc3ccccc3)CCC2=O)cc1
-35	Fc1ccc(-n2nnc(-c3ncc[nH]3)n2)cc1
-7	Cc1cccc2c1[nH]c1nc(N/N=C\c3ccco3)nnc12
14	COCCNC(=O)Cn1c(=O)n(CCCCCC(=O)NCc2ccc3c(c2)OCO3)c(=O)c2sccc21
-3	Cc1nc(SCC(=O)Nc2ccccc2C(F)(F)F)c(C#N)c(C)c1CC(=O)c1ccc(Br)cc1
3	C/C(CC(=O)Nc1ccccn1)=N\NC(=O)c1ccccc1
-13	O=C(NCc1ccccc1)C1CCCC1
-3	Cc1c(Nc2cc(N3CCOCC3)c3nonc3c2[N+](=O)[O-])c(=O)n(-c2ccccc2)n1C
-1	CC(=O)N(CC(C)(C)CC=C(C)C)c1ccccc1
96*	O=[N+]([O-])/C(C(Cl)=C(Cl)Cl)=C(\Nc1ccc(F)cc1)n1cncn1
-1	CCN=C1S/C(=C\c2ccc(OC)c(OCC)c2)C(=O)N1CC
0	N=C(N)N1CCc2ccccc2C1
22	O=C(O)c1cccc(-c2ccc(/C=N/n3cnc4sc5c(c4c3=O)CCCC5)o2)c1
-9	COCCNC(=O)c1c(N)sc2c1CCCC2
-4	CCOC(=O)c1sc(/N=C/c2c(C)[nH]n(-c3ccccc3)c2=O)c(C#N)c1C
-15	O=C1c2cccc(O)c2C(=O)c2c(O)cc(CO)cc21
-3	NC(=S)N/N=C/c1ccc(C23CC4CC(CC(C4)C2)C3)cc1
-8	COCCCNC(=O)c1cc2c(=O)n3cc(C)ccc3nc2nc1NCC1CCCO1 (stereo not drawn)
21	CN(C)C1=NC(=O)/C(=C/c2ccc(-c3ccc(S(N)(=O)=O)cc3)o2)S1
6	COc1cc(/C=C2\SC(=Nc3ccc(F)cc3)N(c3ccc(F)cc3)C2=O)ccc1OCC(=O)O
-36	Cc1ccc(NC(=O)CSc2nnc(-c3cccs3)o2)cc1S(=O)(=O)N(C)C
10	CCc1ccc(C(=O)CSC2=C(C#N)C(c3ccco3)C(C(C)=O)=C(C)N2)cc1 (stereo not drawn)
-2	O=C(Cc1cccc2ccccc12)N/N=C/c1ccc(Sc2cccc3cccnc23)o1
-20	CCOC(=O)c1nn(-c2ccc(Cl)cc2Cl)c(=N)c(C#N)c1C
-2	Cc1ccc(Nc2nc(-c3sc(NC(=O)c4ccc([N+](=O)[O-])cc4)nc3C)cs2)cc1
72	CCOC(=O)N1CCc2c(sc(NC(=O)c3ccc(Cl)s3)c2C(N)=O)C1
6	Cc1ccc(S(=O)(=O)c2nc(C)oc2NCc2ccccc2)cc1
0	Cc1ccc(CN2CCc3c(OCC(=O)Nc4cc(C)ccc4C)cccc3C2=O)cc1
-3	CCCNC(=O)OC[C@H]1O[C@H](CCO/N=C(\C)CCN2CCc3nc(-c4ccccc4)c(-c4ccccc4)cc3C2)C=C[C@@H]1Oc1ccc(OC)cc1
-14	CC(C)(C)OC(=O)NCCCCC1=CC2=CC(=O)C(C)(OC(=O)c3cnc4ccccc4n3)C(=O)C2=CO1 (stereo not drawn)
57	CCOc1cc(/C=C2\C(=O)N(c3cccc(C(=O)O)c3)N=C2C(F)(F)F)ccc1OCC(=O)Nc1ccccc1OC
-5	CC1=NN(c2ccccc2)C(=O)/C1=C/c1c(C)[nH]n(-c2ccc(C)cc2)c1=O
26	Cc1ncc(CO)c(/C=N/NC(=O)c2ccc(Br)cc2)c1O
-8	C#CCOCCOCCOCCNc1nc(N2CCN(C(=O)[C@H](Cc3cc4ccccc4[nH]3)n3cc([C@@H](N)C(C)CC)nn3)CC2)nc(N2CCN(C(=O)[C@H](Cc3cc4ccccc4[nH]3)n3cc([C@@H](N)CC(C)C)nn3)CC2)n1 (stereo partly drawn)
51	Cc1nc(NC(=O)c2ccccc2)sc1-c1csc(Nc2cccc(Cl)c2)n1
2	CCn1c(SCC(=O)Nc2ccc(-c3nc4ccc(C)cc4s3)cc2)nnc1-c1ccccc1
99*	O=C1c2c(O)cc(O)cc2O[C@H](c2ccc(O)c(O)c2)[C@@H]1O
-5	Cc1ccc(-n2c(C)cc(/C=c3/sc4nc5ccccc5n4c3=O)c2C)cc1
-3	CCc1ccc(C(=O)N/N=C/c2ccc(Cl)cc2Cl)nc1
0	CC1=CCC(/C=N\Nc2nnc3c(n2)[nH]c2ccccc23)CC1 (stereo not drawn)
-2	C#CCOCCOCCOCCNc1nc(N2CCN(C(=O)[C@H](CCCCN)n3cc(C(N)CO)nn3)CC2)nc(N2CCN(C(=O)[C@H](CCCCN)n3cc(C(N)COC(=O)C(F)(F)F)nn3)CC2)n1 (stereo partly drawn)
57	COc1cc(/C=C2\C(=N)N3N=C(S(=O)(=O)CC(C)C)SC3=NC2=O)ccc1OC(=O)c1ccco1
0	Cc1ccc(CN2CCN(CC(=O)N3CCc4ccccc4C3)C2=O)cc1
-5	Cc1c(-c2ccc(O)cc2)nc2nc(-c3ccccc3)c(-c3ccccc3)nn12
1	CC(OC(=O)c1ccc(Cl)c(S(=O)(=O)N2CCCC2)c1)C(=O)NC1CCCCC1C (stereo not drawn)
-29	O=C(O)C1Nc2c(cccc2C(F)(F)F)C2C=CCC12 (stereo not drawn)

Look-ups from the list.
Result of C#CCOCCOCCOCCNc1nc(N2CCN(C(=O)[C@H](CCCCN)n3cc(C(N)CO)nn3)CC2)nc(N2CCN(C(=O)[C@H](CCCCN)n3cc(C(N)COC(=O)C(F)(F)F)nn3)CC2)n1 (stereo partly drawn) under ALR H2O2 inh: -2
Result of CC(OC(=O)c1ccc(Cl)c(S(=O)(=O)N2CCCC2)c1)C(=O)NC1CCCCC1C (stereo not drawn) under ALR H2O2 inh: 1
Result of CC1=CCC(/C=N\Nc2nnc3c(n2)[nH]c2ccccc23)CC1 (stereo not drawn) under ALR H2O2 inh: 0
Result of Cc1c(-c2ccc(O)cc2)nc2nc(-c3ccccc3)c(-c3ccccc3)nn12 under ALR H2O2 inh: -5

Following part.
ALR H2O2 inh	compound
-4	CCN(CC)c1ccc(/C=C2/C(=O)N(c3ccc([N+](=O)[O-])cc3)N=C2N2CCOCC2)cc1
-10	CC1=CC(=O)c2c(O)ccc(O)c2C1=O
4	Cn1cnc2c1c(=O)[nH]c(=O)n2C
-1	COC(=O)C/C=C/[C@@H](C)[C@@H](/C=N/OC[C@@H](C)[C@H](OCc1ccccc1)C(C)C)NS(=O)(=O)c1ccc(C)cc1
24	COc1cc(CC(=O)N/N=C/c2ccccc2)c([N+](=O)[O-])cc1OC
-12	O=C(O)c1cc(N/N=C/c2cccs2)ccc1Cl
11	C/C(CCN1CCCCc2nc(C)c(C)cc21)=N\O[C@H](C)c1cn([C@H](CO)Cc2ccccc2)nn1
-3	COc1ccc2c(c1)[C@H]1[C@H](CO2)[C@H](c2ccccc2)[C@]2(C)C(=O)N[C@@H](C)C(=O)N12
38	CCCCn1c(NC(=O)c2ccc(F)cc2)c(C#N)c2nc3ccccc3nc21
-4	CC1(OC(=O)CCc2ccccc2)C(=O)C=C2C=C(c3ccsc3)OC=C2C1=O (stereo not drawn)

Quoted from the listing for reference:
ALR H2O2 inh	compound
-4	CCN(CC)c1ccc(/C=C2/C(=O)N(c3ccc([N+](=O)[O-])cc3)N=C2N2CCOCC2)cc1
-10	CC1=CC(=O)c2c(O)ccc(O)c2C1=O
4	Cn1cnc2c1c(=O)[nH]c(=O)n2C
-1	COC(=O)C/C=C/[C@@H](C)[C@@H](/C=N/OC[C@@H](C)[C@H](OCc1ccccc1)C(C)C)NS(=O)(=O)c1ccc(C)cc1
24	COc1cc(CC(=O)N/N=C/c2ccccc2)c([N+](=O)[O-])cc1OC
-12	O=C(O)c1cc(N/N=C/c2cccs2)ccc1Cl

The list continues:
ALR H2O2 inh	compound
?	COc1cccc(C2C3=C(Nc4[nH]n(-c5ccccc5)c(=O)c42)c2ccccc2C3=O)c1 (stereo not drawn)
-12	Cc1ccc2c(-c3csc(N)n3)c[nH]c2c1
6	CCOC(=O)COn1c(=O)c(-c2ccc(OC)c(OC)c2)[n+]([O-])c2ccccc21
-8	COc1cc(S(=O)(=O)Nc2cccc(C)c2)ccc1N=Cc1c(C)[nH]n(-c2ccccc2)c1=O
10	CCOC(=O)C1=C(c2ccccc2)O/C(=C(/C#N)C(F)(F)F)S1
47	O=C1/C(=C\c2ccco2)SC(=S)N1C1CCCCC1

Bioassay records as filed in PubChem.

The list is partial; rates above refer to the full screens.
